Env fusion inh: inhibitors of HIV Env-mediated cell fusion; AID 651610; inhibition, % at 12.3 µM; actives 1.1% (n = 360,000); HeLa-JRFL Env/CEM21 cell fusion, luciferase;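 active = mean replicate inhibition score of at least 50 and every replicate individually at or above 50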;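 also: 0% = plate neutral controls and 100% = maraviroc near 300 nM; one replicate is shown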
Yeast UUG start: modulators of start codon recognition fidelity in yeast | S. cerevisiae UUG-firefly luciferase reporter, luminescence/redox ratio | activity score, % at 18.7 µM | actives 0.13% (n = 350,000) | AID 602363;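 active = replicate mean at a twofold rise or more, about +100% in these data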;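 also: firefly luciferase made from a UUG start codon reports start codon fidelity; reporter light over untreated wells divided by growth signal over untreated wells; some hits fall short of that in this replicate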
Numbers without * were called inactive; & = joins results of further samples; [ ] = dose if it differs, or a comment.

Each structure is followed by: Env fusion inh | Yeast UUG start
O=C(Cc1ccccn1)NCC[C@@H]1CC[C@@H](NS(=O)(=O)c2ccccc2)[C@H](CO)O1
  0[16.7 µM] | 7
Cn1cnc(S(=O)(=O)N[C@@H]2C=C[C@H](CC(=O)Nc3ccc(-c4ccccc4)cc3)O[C@@H]2CO)c1
  -76[16.7 µM] | -9
C[C@@H]1CCCCO[C@H](CN(C)Cc2ccc(C(=O)O)cc2)[C@@H](C)CN([C@@H](C)CO)C(=O)c2cc(NC(=O)NC3CCCCC3)ccc2O1
  -103[16.7 µM] | -1
C[C@H]1CN([C@@H](C)CO)C(=O)c2cc(C#CCN(C)C)cnc2O[C@@H]1CN(C)Cc1ccc(F)cc1
  -17[16.7 µM] | -4
C[C@@H]1CCCCO[C@@H](CN(C)S(=O)(=O)c2cn(C)cn2)[C@H](C)CN([C@@H](C)CO)C(=O)c2cc(NC(=O)Nc3ccc4c(c3)OCO4)ccc2O1
  1[16.7 µM] | 13
O=C(C[C@@H]1CC[C@@H]2[C@H](COC[C@H](O)CN2C(=O)Nc2ccccc2)O1)NCc1ccncn1
  7[16.7 µM] | 0
COc1cccc(NC(=O)N(C)C[C@@H]2Oc3ncc(C#Cc4ccccc4)cc3C(=O)N([C@H](C)CO)C[C@H]2C)c1
  6[16.7 µM] | -19
O=C(Nc1ccccc1)N[C@H]1CC[C@@H](CCNC(=O)c2ccccc2F)O[C@H]1CO
  12[16.7 µM] | 7
C[C@H](CO)N1C[C@H](C)[C@@H](CN(C)S(=O)(=O)c2ccc(Cl)cc2)Oc2c(NC(=O)Nc3cccc4ccccc34)cccc2C1=O
  -7[16.7 µM] | -11
C[C@@H]1CN([C@@H](C)CO)C(=O)Cc2cc(NC(=O)Cn3cnnn3)ccc2O[C@@H]1CN(C)S(=O)(=O)c1ccc(F)cc1
  -3[16.7 µM] | -1
CC(=O)Nc1ccc2c(c1)C(=O)N(C)[C@H]1CC[C@H](CC(=O)NCC3CCCCC3)O[C@H]1CO2
  -8[16.7 µM] | 10
Cc1ccc(S(=O)(=O)N[C@@H]2CC[C@H](CC(=O)N3CCN(c4ccccc4)CC3)O[C@@H]2CO)cc1
  14[16.7 µM] | 0
C[C@H]1CN([C@@H](C)CO)C(=O)c2cccc(NC(=O)Nc3cccc4ccccc34)c2O[C@@H]1CN(C)C(=O)Nc1ccc(C(F)(F)F)cc1
  33[16.7 µM] | 17
COc1cccc(S(=O)(=O)N[C@@H]2CC[C@H](CCn3cc(-c4ccccc4OC)nn3)O[C@H]2CO)c1
  -3[16.7 µM] | 10
C[C@@H]1CCCCO[C@@H](CN(C)C(=O)CCC(F)(F)F)[C@@H](C)CN([C@@H](C)CO)C(=O)c2cc(NS(=O)(=O)c3ccccc3)ccc2O1
  -24[16.7 µM] | 17
C[C@@H]1CN([C@H](C)CO)C(=O)Cc2cc(NC(=O)CCN3CCOCC3)ccc2O[C@H]1CN(C)Cc1ccc(C(F)(F)F)cc1
  -1[16.7 µM] | -4
COc1ccc(-c2cnc3c(c2)C(=O)N([C@@H](C)CO)C[C@@H](C)[C@H](CN(C)C(=O)NC2CCCC2)O3)cc1
  -13[16.7 µM] | 12
O=C(C[C@H]1CC[C@H](NS(=O)(=O)c2ccc(F)cc2)[C@@H](CO)O1)NCc1ccncn1
  -24[16.7 µM] | 7
Cc1noc(C)c1S(=O)(=O)Nc1ccc2c(c1)C(=O)N([C@H](C)CO)C[C@H](C)[C@@H](CN(C)C)OCCCC[C@@H](C)O2
  16[16.7 µM] | -11
COc1cccc(C#Cc2cnc3c(c2)C(=O)N([C@H](C)CO)C[C@H](C)[C@H](CN(C)C(=O)C2CCOCC2)O3)c1
  -3[16.7 µM] | 125*

Each structure is followed by: Env fusion inh | Yeast UUG start
C[C@H]1CN([C@@H](C)CO)C(=O)c2cc(N(C)C)ccc2O[C@@H]1CN(C)Cc1ccc(Oc2ccccc2)cc1
  -9[16.7 µM] | 8
CC(=O)N(C)C[C@@H]1Oc2cc(C#C[C@@H](C)O)ccc2S(=O)(=O)N([C@@H](C)CO)C[C@@H]1C
  -9[16.7 µM] | 121*
CN(C)c1ccc2c(c1)[C@H]1C[C@@H](CC(=O)NCc3ccccc3)O[C@@H](CO)[C@H]1O2
  -23[16.7 µM] | -6
COc1ccc(NC(=O)N(C)C[C@H]2Oc3c(NS(=O)(=O)c4ccc(F)cc4)cccc3C(=O)N([C@H](C)CO)C[C@H]2C)cc1
  1[16.7 µM] | 0
C[C@H]1CN([C@@H](C)CO)C(=O)c2cc(NC(=O)Nc3ccc(F)cc3)ccc2O[C@H]1CN(C)S(=O)(=O)c1ccc(F)cc1
  12[16.7 µM] | 0
O=C(Nc1ccc2c(c1)[C@@H]1C[C@H](CC(=O)N3CCCCC3)O[C@H](CO)[C@@H]1O2)C1CCC1
  -1[16.7 µM] | -4
Cc1noc(C)c1S(=O)(=O)Nc1ccc2c(c1)C(=O)N([C@@H](C)CO)C[C@@H](C)[C@@H](CN(C)Cc1ccccc1)OCCCC[C@@H](C)O2
  -73[16.7 µM] | 11
CC(=O)Nc1ccc2c(c1)C(=O)N(C)[C@@H]1CC[C@@H](CC(=O)NCc3ccccc3Cl)O[C@@H]1CO2
  -3[16.7 µM] | 19
CO[C@@H]1CN(C)C(=O)c2cc(NS(=O)(=O)c3ccccc3Cl)ccc2OC[C@@H](C)NC[C@@H]1C
  25[16.7 µM] | -1
C=CC[C@@]1(C(=O)NCC(O)CO)N=C(c2ccc(OCCCO)cc2)O[C@@H]1c1ccccc1 (stereo partly drawn)
  8[16.7 µM] | 1
CO[C@@H]1CN(C)C(=O)c2ccc(NS(=O)(=O)CC(F)(F)F)cc2OC[C@@H](C)N(Cc2ccccn2)C[C@H]1C
  -1[16.7 µM] | 8
O=S(=O)(N[C@H]1CC[C@H](CCNS(=O)(=O)c2ccccc2Cl)O[C@H]1CO)c1ccccc1
  -9[16.7 µM] | 2
CCC(=O)N(C)C[C@@H]1Oc2cc(C#Cc3ccccn3)ccc2S(=O)(=O)N([C@H](C)CO)C[C@@H]1C
  -11[16.7 µM] | -2
CC(C)C#Cc1cnc2c(c1)C(=O)N([C@H](C)CO)C[C@H](C)[C@H](CN(C)C(=O)c1ccccc1)O2
  2[16.7 µM] | -8
CC(C)CC#Cc1ccc2c(c1)O[C@@H](CN(C)CC1CC1)[C@@H](C)CN([C@@H](C)CO)S2(=O)=O
  -1[16.7 µM] | 26
CCNC(=O)C[C@H]1CC[C@@H](NC(=O)C2CC2)[C@@H](CO)O1
  11[16.7 µM] | 14
CO[C@H]1CN(C)C(=O)c2cc(NS(=O)(=O)c3ccc(Cl)cc3)ccc2OC[C@@H](C)NC[C@@H]1C
  15[16.7 µM] | 9
Cc1ccccc1-c1cnc2c(c1)C(=O)N([C@H](C)CO)C[C@@H](C)[C@H](CN(C)C(=O)CN(C)C)O2
  -38[16.7 µM] | 7
O=C(NCC[C@H]1CC[C@@H](NS(=O)(=O)c2cccc(F)c2)[C@H](CO)O1)C1CCC1
  -4[16.7 µM] | 34
COCC#Cc1ccc2c(c1)O[C@H](CN(C)Cc1ccc3c(c1)OCO3)[C@@H](C)CN([C@H](C)CO)S2(=O)=O
  16[16.7 µM] | -5

Sorted by molar mass (smallest number first): eight of the compounds above
Each structure is followed by: Env fusion inh | Yeast UUG start
O=C(NCC[C@H]1CC[C@@H](NS(=O)(=O)c2cccc(F)c2)[C@H](CO)O1)C1CCC1
  -4[16.7 µM] | 34
O=C(Nc1ccc2c(c1)[C@@H]1C[C@H](CC(=O)N3CCCCC3)O[C@H](CO)[C@@H]1O2)C1CCC1
  -1[16.7 µM] | -4
C=CC[C@@]1(C(=O)NCC(O)CO)N=C(c2ccc(OCCCO)cc2)O[C@@H]1c1ccccc1 (stereo partly drawn)
  8[16.7 µM] | 1
CC(C)CC#Cc1ccc2c(c1)O[C@@H](CN(C)CC1CC1)[C@@H](C)CN([C@@H](C)CO)S2(=O)=O
  -1[16.7 µM] | 26
CC(C)C#Cc1cnc2c(c1)C(=O)N([C@H](C)CO)C[C@H](C)[C@H](CN(C)C(=O)c1ccccc1)O2
  2[16.7 µM] | -8
CC(=O)Nc1ccc2c(c1)C(=O)N(C)[C@@H]1CC[C@@H](CC(=O)NCc3ccccc3Cl)O[C@@H]1CO2
  -3[16.7 µM] | 19
C[C@H]1CN([C@@H](C)CO)C(=O)c2cc(N(C)C)ccc2O[C@@H]1CN(C)Cc1ccc(Oc2ccccc2)cc1
  -9[16.7 µM] | 8
CO[C@@H]1CN(C)C(=O)c2ccc(NS(=O)(=O)CC(F)(F)F)cc2OC[C@@H](C)N(Cc2ccccn2)C[C@H]1C
  -1[16.7 µM] | 8

Remaining list, next part:
Each structure is followed by: Env fusion inh | Yeast UUG start
Cc1noc(C)c1S(=O)(=O)N(C)C[C@H]1OCCCC[C@@H](C)Oc2ccc(NC(=O)Cc3ccccc3)cc2C(=O)N([C@H](C)CO)C[C@@H]1C
  -40[16.7 µM] | -7
C[C@@H]1CN([C@@H](C)CO)C(=O)c2cc(NC(=O)CCC(F)(F)F)ccc2O[C@@H](C)CCCCO[C@@H]1CN(C)S(=O)(=O)c1cccs1
  -7[16.7 µM] | 13
COCC(=O)N[C@@H]1CC[C@H](CC(=O)NCc2ccc(Cl)cc2)O[C@@H]1CO
  -10[16.7 µM] | -7
COc1ccc(NC(=O)N(C)C[C@@H]2Oc3ccc(NC(=O)Nc4ccc(C(F)(F)F)cc4)cc3C(=O)N([C@H](C)CO)C[C@@H]2C)cc1
  -56[16.7 µM] | -16
C[C@@H]1CCCCO[C@@H](CN(C)Cc2ccc(C(F)(F)F)cc2)[C@H](C)CN([C@H](C)CO)C(=O)c2cc(NC(=O)Nc3ccc(C(F)(F)F)cc3)ccc2O1
  70*[16.7 µM] | -14
O=C(NCC[C@@H]1CC[C@H](NC(=O)C2CC2)[C@H](CO)O1)Nc1ccc(C(F)(F)F)cc1
  -7[16.7 µM] | 19
CO[C@@H]1CN(C)C(=O)c2ccc(NC(=O)c3ccccc3)cc2OC[C@H](C)N(C)C[C@H]1C
  9[16.7 µM] | -3
COc1ccc(S(=O)(=O)N(C)C[C@@H]2Oc3ncc(Br)cc3C(=O)N([C@H](C)CO)C[C@@H]2C)cc1
  40&34[16.7 µM] | 14&16
O=C(C[C@H]1C[C@@H]2c3cc(NC(=O)CC4CC4)ccc3O[C@@H]2[C@H](CO)O1)NCc1ccccn1
  19[16.7 µM] | -22
COc1ccc(CN(C)C[C@@H]2OCCCC[C@@H](C)Oc3ccc(NC(=O)Nc4c(C)noc4C)cc3C(=O)N([C@@H](C)CO)C[C@H]2C)cc1
  -22[16.7 µM] | 1
C[C@@H]1CN([C@H](C)CO)C(=O)c2cc(NS(=O)(=O)c3ccc(Cl)cc3)ccc2O[C@H]1CN(C)S(=O)(=O)c1ccc(F)cc1
  32[16.7 µM] | 29
CCNC(=O)C[C@H]1CC[C@H]2[C@@H](COc3ccc(NC(=O)c4ccc(C#N)cc4)cc3C(=O)N2C)O1
  7[16.7 µM] | -6
O=C(C[C@H]1CC[C@H](NC(=O)Nc2ccccc2F)[C@H](CO)O1)NCc1ccccc1
  -12[16.7 µM] | 3
Cc1noc(C)c1S(=O)(=O)Nc1ccc2c(c1)C(=O)N([C@H](C)CO)C[C@H](C)[C@H](CN(C)C(=O)CCC(F)(F)F)OCCCC[C@@H](C)O2
  6[16.7 µM] | -7
Cc1ccc(S(=O)(=O)N(C)C[C@H]2Oc3c(NC(=O)NC4CCCCC4)cccc3C(=O)N([C@H](C)CO)C[C@@H]2C)cc1
  7[16.7 µM] | -4
C[C@@H]1CCCCO[C@@H](CN(C)Cc2ccc3c(c2)OCO3)[C@@H](C)CN([C@H](C)CO)C(=O)c2cc(NC(=O)Nc3ccccc3)ccc2O1
  -17[16.7 µM] | 5
Cc1ccc(S(=O)(=O)Nc2ccc3c(c2)C(=O)N([C@H](C)CO)C[C@@H](C)[C@H](CN(C)Cc2ccc(C(F)(F)F)cc2)OCCCC[C@H](C)O3)cc1
  -12[16.7 µM] | 2
O=C(O)C[C@H]1C[C@@H]2c3cc(NC(=O)NC4CCCC4)ccc3O[C@@H]2[C@H](CO)O1
  20[16.7 µM] | -7
C[C@@H]1CCCCO[C@H](CN(C)S(=O)(=O)c2ccc(Cl)cc2)[C@H](C)CN([C@@H](C)CO)C(=O)c2cc(NC(=O)Nc3cccc4ccccc34)ccc2O1
  -42[16.7 µM] | 16
O=C(N[C@H]1CC[C@H](CCNS(=O)(=O)c2ccc(F)cc2)O[C@H]1CO)c1cccc(F)c1
  1[16.7 µM] | -10

Each structure is followed by: Env fusion inh | Yeast UUG start
CCS(=O)(=O)NCC[C@@H]1CC[C@@H](NC(=O)C2CCOCC2)[C@@H](CO)O1
  1[16.7 µM] | -4
C[C@H]1CN([C@@H](C)CO)C(=O)Cc2cc(NC(=O)Cc3cn(C)c4ccccc34)ccc2O[C@H]1CN(C)S(=O)(=O)c1ccc(F)cc1
  -19[16.7 µM] | 2
COc1cccc(NC(=O)N(C)C[C@@H]2Oc3ncc(C#Cc4ccccc4)cc3C(=O)N([C@@H](C)CO)C[C@@H]2C)c1
  -21[16.7 µM] | -5
O=C(C[C@@H]1CC[C@@H]2[C@H](COC[C@@H](O)CN2C(=O)Nc2cccc(Cl)c2)O1)NCc1ccccc1F
  4[16.7 µM] | 14
C[C@@H]1CN([C@@H](C)CO)C(=O)c2cc(NC(=O)C3CCCCC3)ccc2O[C@@H]1CN(C)S(C)(=O)=O
  -31[16.7 µM] | 5
C[C@@H]1CN([C@@H](C)CO)C(=O)c2cc(-c3ccc(F)cc3)cnc2O[C@@H]1CN(C)Cc1ccc(F)cc1
  3[16.7 µM] | -24
O=C(Nc1cccc(Cl)c1)N[C@H]1CC[C@@H](CCNC(=O)C2CCCCC2)O[C@@H]1CO
  14[16.7 µM] | 22

This is a subset; rates above refer to the full screens.
